Assay outcomes: PubChem BioAssay, several laboratories
rRNA inh HTS = reduced GFP signal of wild-type E. coli, primary screen, bacterial rRNA inhibitor project, GFP/RFP fluorescence, OD600, single point; E. coli WT GFP vs humanized-ribosome RFP mutants, 24 h; stronger effect = lower value; DMSO median 0, no signal -100; AID 720706, 2013; GFP signal change (wild-type ribosome), % (no concentration beside the values); actives 1.6% (n = 350,000);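 active = significant combined selectivity score with lowered wild-type GFP, culture density cut under 30%, mutant RFP and density less affected; inactive = any of these conditions unmet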; note: one replicate is shown; some compounds called inactive have numbers as strong as hits
E coli growth = E. coli growth inhibition, primary screen, OD600. Escherichia coli growth, 23 h; stronger effect = lower value. OD600 absorbance (concentration not given with the values). actives 0.21% (n = 330,000);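 active = OD600 absorbance below the run mean of sample wells minus 3.6 SD, in any replicate, cut at about 0.56 in these data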;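 note: stock transfer was 300 nL into about 60 µL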
ALR inh = inhibitors of human ALR sulfhydryl oxidase, primary screen, biochemical, H2O2 detection, HRP-luminol luminescence, single point. inhibition, % (no concentration beside the values). purified ALR, DTT oxidation. actives 3.8% (n = 290,000);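 active = mean and each replicate at 75% or more; inconclusive = only one of the two met; inactive = neither met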;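 note: stock transfer was 7.5 nL into about 7.5 µL; 0% = neutral wells and 100% = wells with inactivated enzyme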
Target sequence (P55789 whole entry, looked up): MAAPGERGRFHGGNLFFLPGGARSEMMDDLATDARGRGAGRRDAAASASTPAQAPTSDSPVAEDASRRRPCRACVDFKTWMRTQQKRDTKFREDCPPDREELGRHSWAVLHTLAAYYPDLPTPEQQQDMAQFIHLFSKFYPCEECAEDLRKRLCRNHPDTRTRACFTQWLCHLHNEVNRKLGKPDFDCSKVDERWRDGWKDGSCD
Vif A3G = inhibitors of Vif binding to APOBEC3G peptide, primary screen, biochemical, TR-FRET, GST-Vif 1-94, biotin-A3G peptide, dose response retest (AID 1117319); Virion infectivity factor (Human immunodeficiency virus type 1 group M subtype B (isolate …; TR-FRET GST-Vif / biotin-A3G peptide binding; higher % means a stronger effect; test concentration not given here; strong numbers were not always called active; inhibition, %, or IC50 in µM where a hit was titrated; actives 0.57% (n = 260,000);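 active = above the screen mean plus three standard deviations and confirmed in dose response; inconclusive = results disagree or hit not tested in dose response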;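 note: Vif residues 1-94 fused to GST binding biotinylated APOBEC3G peptide 110-148; 0% = full assay without inhibitor and 100% = GST in place of GST-Vif; retest series ran down from 100 µM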
FGF22 binding = binders of human FGF22 protein, primary screen, FGF22 synaptogenesis inhibitor project, biophysical, thermal shift, single point. AID 651658, 2012. calls only at 9.99 µM. recombinant FGF22 thermal shift, SYPRO orange fluorescence; percent of sucrose octasulfate shift, DMSO zero. actives 1.5% (n = 340,000);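 active = melting point raised past a set limit in the mean and every replicate; inconclusive = no clear call; three in four hits are not shown here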
Target sequence (Q9HCT0 whole entry, looked up): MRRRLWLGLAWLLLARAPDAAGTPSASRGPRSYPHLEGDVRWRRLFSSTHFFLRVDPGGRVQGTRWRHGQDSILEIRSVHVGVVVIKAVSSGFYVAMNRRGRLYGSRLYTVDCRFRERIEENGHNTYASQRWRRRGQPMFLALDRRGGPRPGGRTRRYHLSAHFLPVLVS
HNF4A DNA FP = change in binding of human HNF4A to DNA, primary screen, biochemical, fluorescence polarization, FITC-DNA | AID 1224865, 2016 | activity change, % at 10 µM | 1 h | Hepatocyte nuclear factor 4-alpha (Homo sapiens), P41235 | actives 0.3% (n = 360,000); in the data active = activity change above about 30%, passing the limit was not always enough;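 note: controls were the assay level and a saturating level of protein; the project sought stronger binding though the title names inhibitors; some compounds called inactive have numbers as strong as hits; positive values seem to mean higher polarization but the record does not say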
Target sequence (P41235 whole entry, looked up): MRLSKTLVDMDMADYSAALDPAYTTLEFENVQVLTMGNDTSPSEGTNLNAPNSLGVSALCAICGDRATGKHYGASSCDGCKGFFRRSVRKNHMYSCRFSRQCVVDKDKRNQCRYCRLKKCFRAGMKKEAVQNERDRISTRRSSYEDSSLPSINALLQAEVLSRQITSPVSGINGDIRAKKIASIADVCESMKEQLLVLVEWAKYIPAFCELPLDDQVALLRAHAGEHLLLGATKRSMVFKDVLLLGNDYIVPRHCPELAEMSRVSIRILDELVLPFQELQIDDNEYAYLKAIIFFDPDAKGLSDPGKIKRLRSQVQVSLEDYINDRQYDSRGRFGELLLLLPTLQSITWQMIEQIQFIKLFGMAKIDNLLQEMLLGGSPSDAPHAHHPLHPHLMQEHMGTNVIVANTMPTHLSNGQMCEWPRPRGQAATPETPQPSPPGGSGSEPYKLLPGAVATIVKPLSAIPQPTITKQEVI
MLL AF4-AF9 inh = inhibitors of AF4 peptide binding to AF9, primary screen, biochemical, AlphaScreen, biotin-AF4 peptide, FLAG-AF9, single point | Protein AF-9 (Homo sapiens), P42568 | inhibition, % at 10 µM | actives 0.47% (n = 350,000);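 active = every replicate reaching a set inhibition limit, whatever the replicate mean, cut at about 25% in these data; inconclusive = mean inhibition reaches that limit but some replicates miss it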;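 note: 0% = plate neutral control median and 100% = total signal loss; the record names both 10 and 1 µM as test concentration; the first replicate is given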
rRNA inh HTS OD600 = also measured in rRNA inh HTS; calls as there; OD600 change, %; measured here: OD600 growth;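 optical density of the mix in the first replicate; 0 = DMSO median and -100 = no signal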
rRNA inh HTS RFP = recorded beside rRNA inh HTS, whose call it bears; RFP signal change, %; measured here: RFP humanized mutant strains;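 first replicate; 0 = DMSO median and -100 = no signal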
Starred values were filed as active, the others as inactive; i = inactive; ? = inconclusive; . = not tested or not shown; & = joins results of further samples. Some of the compounds tested. The share of hits here may be higher or lower than overall.

Fields – rRNA inh HTS	rRNA inh HTS OD600	rRNA inh HTS RFP	E coli growth	ALR inh	Vif A3G	FGF22 binding	HNF4A DNA FP	MLL AF4-AF9 inh
1) CCC(=O)N(C)C[C@@H]1Oc2ncc(Br)cc2C(=O)N([C@@H](C)CO)C[C@@H]1C
→ 4.9	2.8	0.4	.	.	.	i	.	-3.2
2) COc1ccc(C(=O)NCCOC(C)C)cc1OC1CCN(C(C)=O)CC1
→ 6.8	1.4	-1.3	0.698	.	.	i	-4.5	1.1
3) C[C@H]1CN([C@@H](C)CO)C(=O)c2cccc(NS(=O)(=O)c3cccs3)c2O[C@H]1CN(C)S(=O)(=O)c1cn(C)cn1
→ 0.0	5.3	-1.6	.	.	.	i	.	-2.1
4) O=C(NCc1ccco1)/C(=C\c1cccs1)NC(=O)c1ccsc1
→ .	.	.	0.701	11.9	?	i	1.4	6.5
5) CCOc1ccc(OCC(=O)NCCc2nc3ccccc3[nH]2)cc1
→ .	.	.	0.642	-2.5	1.0%	.	1.7	.
6) COc1ccc(CCNC(=O)C(Sc2ccccn2)c2ccccc2)cc1OC (stereo not drawn)
→ .	.	.	0.638	-13.6	.	i	-3.3	1.6
7) CCOc1ccc(C(=O)c2cc([N+](=O)[O-])ccc2N2CCOCC2)cc1
→ -15.3	-13.3	16.5	0.705	2.2	-5.7%	i	2.6	4.7
8) COc1ccccc1Nc1nc(N)nc(CN2CCCCCC2)n1
→ .	.	.	0.667	1.4	11.6%	.	7.1	.
9) CC(=O)Nc1ccc(/C=N/N2C(C)CCCC2C)cc1 (stereo not drawn)
→ 6.6	-1.4	-2.2	.	6.6	.	i	-0.8	-1.9
10) O=C(Nc1cccc(F)c1)N[C@H]1CC[C@@H](CCn2cc(Cc3ccccc3)nn2)O[C@H]1CO
→ -5.7	-7.3	1.3	.	.	.	i	.	1.6
11) O=C(O)C1CC=CCC1C(=O)Nc1ccc2c(c1)OCCO2 (stereo not drawn)
→ .	.	.	0.712	-16.2	29.3%	.	-1.1	.
12) NS(=O)(=O)c1ccc(CCNC(=O)c2ccc(Cl)c(S(=O)(=O)N3CCCCC3)c2)cc1
→ 1.2	-4.1	0.7	0.692	19.8	-5.5%	i	0.3	2.0
13) CCCCCC(=O)N1C[C@H](n2cc(C3CC3)nn2)[C@@H](O)C[C@@H]1c1ccc(C)cc1
→ 6.5	10.2	2.8	.	.	-2.8%	i	-3.0	-2.5
14) O=C(/C=C/NNC(=O)c1ccccc1)c1ccc(Br)cc1
→ .	.	.	.	4.6	-2.2%	.	-2.3	.
15) CC(=O)N1[C@H](CO)[C@@H](c2ccccc2)C12CN(Cc1cc(F)ccc1F)C2
→ -0.7	5.1	1.3	.	.	.	i	.	1.9
16) CCOC(=O)/C=C/c1cccc(OC)c1O
→ 1.0	-1.1	0.9	.	.	.	i	1.4	.
17) COc1ccc(NC(=O)N[C@H]2CC[C@H](CCNC(=O)CCN3CCCCC3)O[C@@H]2CO)cc1
→ 1.0	6.1	-1.6	.	.	.	i	.	1.9
18) Cc1cc(NS(=O)(=O)c2ccc(NC(=S)NC(=O)c3ccc(F)cc3)cc2)no1
→ .	.	.	0.682	30.1	.	.	-1.4	.
19) COC(C(=O)Nc1ccnn1C1CCN(Cc2ccc(C)s2)CC1)c1ccccc1 (stereo not drawn)
→ -0.8	11.0	1.6	0.721	-1.0	.	i	-4.4	0.6
20) Cc1ccc(C(=O)OCC(=O)N(CC(C)C)c2c(N)n(Cc3ccccc3)c(=O)[nH]c2=O)s1
→ 6.9	10.0	-2.6	0.692	0.4	.	i	-3.5	-1.3
21) CNc1nc(SC)nc(N2CCOCC2)n1
→ .	.	.	0.737	-1.5	-2.7%	.	4.2	.
22) O=C(NCC1COc2ccccc2O1)c1ccc(NC(=O)C(c2ccccc2)c2ccccc2)cc1 (stereo not drawn)
→ 1.7	0.9	0.5	0.741	-6.7	-11.8%	i	0.4	-5.2
23) COc1ccc(C(=O)NC(C)c2nnc(SCC(=O)Nc3nc4ccccc4s3)n2C)cc1 (stereo not drawn)
→ .	.	.	0.759	-6.1	5.3%	.	-0.1	.
24) COc1cccc(CNC(=O)COc2cccc3c2OC(C)(C)C3)c1
→ -3.3	-8.2	-0.2	0.605	4.5	4.9%	i	-2.2	-0.5
25) O=C(Nc1ccc(F)cc1)c1cnccn1
→ -1.6	7.1	-0.7	.	.	-1.2%	i	-1.7	-2.9
26) C[C@@H]1CN([C@@H](C)CO)C(=O)c2cccc(NS(=O)(=O)c3ccc(Cl)cc3)c2O[C@H]1CN(C)Cc1ccc(C(F)(F)F)cc1
→ -4.2	-10.3	-2.8	.	.	.	i	.	4.7
27) COCCNC(=O)C1(C)CCN(C(=O)c2ccc(SC(F)(F)F)cc2)C1 (stereo not drawn)
→ 8.2	18.2	-1.9	.	.	.	i	-0.4	-9.3
28) NS(=O)(=O)c1ccc(CCNC(=O)CCNC(=O)c2ccco2)cc1
→ 1.6	8.1	-1.5	0.719	-8.3	3.6%	i	-3.3	-5.1
29) CCCOc1ccc(C2c3c(oc4cc(C)c(C)cc4c3=O)C(=O)N2CCCN(C)C)cc1OCC (stereo not drawn)
→ 2.4	6.5	1.6	0.679	-17.2	.	i	2.9	4.3
30) COc1ccccc1CNC(=O)C12CC3CC(CC(C3)C1)C2
→ 12.8	10.4	-1.4	0.647	47.2	.	i	0.3	4.6
31) N#C/C(=C\Nc1ccccn1)S(=O)(=O)c1ccc(Cl)cc1
→ -1.6	10.0	8.8	0.683	-5.7	.	i	0.2	.
32) O=C(N[C@@H](Cc1ccccc1)C(=O)OCc1ccccc1)c1nc[nH]c1C(=O)N1CCNCC1
→ 0.3	5.3	1.0	.	9.2	.	i	-0.1	-8.9
33) CNC(=O)C[C@@H]1C(=O)N(Cc2ccccc2)CC1(C)C
→ -2.2	8.7	-0.7	.	.	.	i	-4.5	-1.1
34) O=C(Nc1cccc(Oc2ccccc2)c1)c1ccc(-n2cncn2)c2ccoc12
→ 6.6	17.1	4.7	.	.	.	i	0.9	-2.2
35) CC(C)NC(=O)Nc1ccc2c(c1)C(=O)N([C@H](C)CO)C[C@H](C)[C@H](CN(C)CC1CC1)OCCCC[C@@H](C)O2
→ 2.5	7.3	-2.7	.	.	.	i	.	-0.2
36) CCC(=O)N1C[C@H](C)[C@@H](OC)CN(C)C(=O)c2cc(NS(C)(=O)=O)ccc2OC[C@H]1C
→ 2.6	-0.3	0.2	.	.	.	i	.	-3.5
37) COc1cccc(/C=N/NC(=O)Cn2nc(C)c([N+](=O)[O-])c2C)c1O
→ -5.6	19.2	6.8	.	87.8*	5.0%	i	2.2	0.2
38) Cc1ccc([N+](=O)[O-])cc1-c1ccc(/C=N/NC(=O)c2cc3c(ccc4ccccc43)o2)o1
→ .	.	.	.	-2.8	-3.2%	.	1.1	.
39) C[C@@H]1CCCCO[C@@H](CN(C)Cc2ccccc2)[C@@H](C)CN([C@H](C)CO)C(=O)c2cc(NC(=O)NC3CCCCC3)ccc2O1
→ 1.0	-14.2	11.3	.	.	.	i	.	-1.2
40) CCCNC(=O)N1[C@H](CO)[C@H](c2ccc(/C=C/c3ccccc3)cc2)[C@@H]1C#N
→ 1.2	-25.1	0.7	.	.	.	i	.	-2.3
41) Cn1nc(C(=O)N2CCN(c3cccc(Cl)c3)CC2)c2c1-c1ccccc1S(=O)(=O)C2
→ 2.8	-23.7	-3.9	0.696	2.7	.	i	-3.0	-1.1
42) CC(C)(C)c1ccc(CC(=O)N2CCC2(C)C(=O)NS(=O)(=O)c2cccc(F)c2)cc1 (stereo not drawn)
→ -15.7	-6.9	2.9	.	.	.	i	5.6	-5.5
43) OC(CN1c2ccccc2Sc2ccccc21)Cn1nnc2ccccc21 (stereo not drawn)
→ .	.	.	0.712	98.1*	-15.9%	.	2.0	.
44) O=[N+]([O-])c1ccc(C=Nc2cccc3ccccc23)s1
→ .	.	.	0.51*	-26.3	.	.	0.6	.
45) COc1ccc2c(c1)C=C(C(=O)NCc1ccc(Cl)cc1)CO2
→ .	.	.	0.674	6.2	21.1%	.	3.5	.
46) NC(=O)CN1CCN(c2ccccc2F)CC1
→ .	.	.	0.723	-6.4	18.0%	.	-1.5	.
47) O=C(NCCCn1ccnc1)c1ccc(-c2ccccc2)cc1
→ -0.9	-3.5	-3.1	0.648	-4.8	1.2%	i	-3.1	5.0
48) O=C(NC1CCCCC1)C(c1ccncc1)N(Cc1ccc2c(c1)OCO2)C(=O)C(F)(F)F (stereo not drawn)
→ .	.	.	0.694	15.6	32.1%	.	-0.1	.
49) O=C(C[C@@H]1CC[C@@H]2[C@H](COC[C@@H](O)CN2C(=O)C2CCOCC2)O1)NCc1ccncc1
→ 0.6	-7.6	17.9	.	.	.	i	.	-1.0
50) CN1C(=O)CC(C(=O)Nc2ccc(F)cc2)SC1=Nc1ccc2c(c1)OCO2 (stereo not drawn)
→ .	.	.	0.675	-8.0	12.6%	.	2.6	.
51) CCCCn1c(=O)n(CC(=O)Nc2c(CC)cccc2CC)c(=O)c2c1nc(CO)n2CCC
→ .	.	.	0.71	-1.4	-3.2%&-2.6%	.	-0.6	.
52) C[C@H]1CN([C@@H](C)CO)C(=O)c2ccccc2-c2ccccc2CO[C@@H]1CN(C)C(=O)CCN(C)C
→ 5.1	9.0	-3.7	.	.	.	i	.	-5.5
53) CS(=O)(=O)c1ccc(Cl)c(NC(=O)CCl)c1
→ 1.8	0.5	-3.4	0.691	1.0	-1.9%	i	0.7	-11.4
54) O=C(CN1C(=O)S/C(=C/c2ccccn2)C1=O)N1CCOCC1
→ 2.3	9.6	-1.0	0.734	-10.7	2.4%	i	-1.6	2.0
55) Cn1c(=O)c2c(nc(SCC(=O)OCc3ccccc3)n2C)n(C)c1=O
→ .	.	.	0.704	.	5.1%	.	3.5	.
56) Brc1ccc(C=Nc2ccc(Nc3ccccc3)cc2)s1
→ .	.	.	0.702	.	28.4%	.	0.1	.
57) CO[C@@H](CN(C)C(=O)C1CC1)[C@H](C)CN(C(=O)Nc1ccc(C(F)(F)F)cc1)[C@@H](C)CO
→ -62.5	-76.2	-16.1	.	.	.	i	.	0.7
58) COCCNC(=O)C[C@H]1CC[C@@H]2[C@H](COc3ccc(NC(=O)Nc4cccc(F)c4)cc3C(=O)N2C)O1
→ 1.9	2.8	-1.0	.	.	.	i	.	-1.4
